miR-21 reporter: miR-21 reporter, rising signal | HeLa miR-21 FLuc reporter, luciferase, 48 h | Potency, µM (top dose mostly 38.3 µM), for the others: at the highest dose reporter change, positive = more light | 340,000 tested, under 10 active | AID 2288; active = well fitted rising curve with a large enough effect; inconclusive = small, poorly fitted or top-dose-only effect; inactive = no such curve, though single readings can be large or run the other way;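 also: % of control where 0% means no effect; miR-21 action dims this reporter so a rising signal means less miR-21 action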
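HeLa cells endogenously expressing miR-21, stably carrying CMV-driven firefly luciferase with a downstream miR-21 binding site, 2000 cells/well. Titrations up to approximately 40 uM, 48 hours; luciferase luminescence read.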
GLA inh pH 4.5: inhibitors of human alpha-galactosidase A at pH 4.5; purified enzyme, 4-MU-alpha-Gal fluorescence, pH 4.5; activity change, negative = inhibition, % at 105 µM; 230,000 tested, under 10 active; AID 1467; inconclusive = small, poorly fitted or top-dose-only inhibition, or a rising curve; inactive = flat fitted curve, though single readings scatter; no compound was filed as active;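 also: 0% = full activity with enzyme and -100% = basal without enzyme; dose as in the result columns while the protocol names 77 µM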
Target sequence (P06280 whole entry, looked up): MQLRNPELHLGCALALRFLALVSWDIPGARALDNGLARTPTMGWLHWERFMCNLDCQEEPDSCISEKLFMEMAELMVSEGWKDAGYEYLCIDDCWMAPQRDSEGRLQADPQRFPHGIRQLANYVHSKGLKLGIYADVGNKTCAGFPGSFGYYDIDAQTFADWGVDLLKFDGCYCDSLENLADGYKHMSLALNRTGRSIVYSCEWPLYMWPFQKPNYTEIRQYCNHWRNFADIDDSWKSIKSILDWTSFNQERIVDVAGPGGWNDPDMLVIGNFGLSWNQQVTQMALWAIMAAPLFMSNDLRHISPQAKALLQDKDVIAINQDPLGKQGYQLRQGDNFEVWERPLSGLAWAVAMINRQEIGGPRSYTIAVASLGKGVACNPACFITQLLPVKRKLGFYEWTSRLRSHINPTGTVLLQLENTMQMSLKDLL
Rango release inh: prevents RanGTP from dissociating the Rango-importin beta complex | O95149+P62826 | hit rate 0.071% among 340,000 | AID 540253 | Potency, µM (highest dose often 46.1 µM), without a hit: top-dose activity change, negative = inhibition | Biochemical FRET Rango-importin beta, RanGTP-induced dissociation; active means falling FRET ratio curve, often poorly fitted, with flat reads before Ran was added; inconclusive means other falling curves, or compound fluorescence or quenching; inactive means flat or rising ratio curve;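 also: potency is read from the fitted curve at half-maximal effect; % of control where 0% means no effect; nearly all actives have a fitted effect of over 45% in size; -100% = wells without RanGTP and RCC1; the record marks most hits as doubtful in a second field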
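FRET read at 45 min, room temperature: inhibitors block the CFP/YFP signal rise when RanGTP (0.6 uM Ran, 2 mM GTP, 0.2 uM RCC1) frees Rango (0.1 uM) from importin beta (0.25 uM). Pre-read after 5 min compound exposure flags interference.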
Rango-impB inh: inhibitors of Rango-importin beta complex formation; Q14974; Rango CFP/YFP FRET sensor + importin beta, 45 min; Potency, µM (titrated, usually from 92.2 µM), without a hit: at the top dose inhibition of complex formation; hit rate 0.031% among 340,000; AID 540263; active = rising FRET ratio curve, often small or poorly fitted; inconclusive = mostly compound fluorescence or quenching in the first reads; inactive = flat curves in all reads;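 also: potency is read from the fitted curve at half-maximal effect; 0% = DMSO wells and 100% = buffer wells lacking importin beta; nearly all actives have a fitted effect of over 15% in size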
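FRET biosensor Rango (snurportin 1 IBB between N-terminal EYFP and C-terminal Cerulean), 50 nM in PBS/1 mM DTT/0.02% Tween-20/0.1% BSA, preincubated 5 min RT with compound; 0.125 microM importin beta added, 45 min RT, CFP/YFP FRET ratio read.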
Active calls of the source: *; & = joins results of further samples. These rows are one share of the data (hit frequency here may not be typical).

COc1cccc(CN2CCN(C3CCN(c4ccccc4F)CC3)CC2CCO)c1 (stereo not given) was read as miR-21 reporter 3%, GLA inh pH 4.5 -3, Rango release inh 2% and Rango-impB inh 1.1%.
For CCCN(CC1CC1)C(=O)CSc1nnc(-c2cc(-c3cccs3)nc3ccccc23)o1 the results were miR-21 reporter 0%, GLA inh pH 4.5 11, Rango release inh 2% and Rango-impB inh -0.8%.
For Cc1cc(Cl)ccc1OCC(=O)OCC(=O)Nc1ccc(F)c([N+](=O)[O-])c1 the results were miR-21 reporter -2%, GLA inh pH 4.5 -18, Rango release inh -2% and Rango-impB inh -0.4%.
For CCOc1cc(NC(=S)NCCc2ccccc2)c(OCC)cc1NC(C)=O the results were miR-21 reporter 1%, GLA inh pH 4.5 -1, Rango release inh 7% and Rango-impB inh 2.5%.
COC(=O)c1c(C(=O)OC)c(-c2cccc(F)c2)n2c1CS(=O)(=O)C2 was read as miR-21 reporter -6%, Rango release inh -8% and Rango-impB inh -1.2%.
For COc1ccc(C2(NC(C)=O)CCN(Cc3cccnc3)CC2)cc1 the results were miR-21 reporter 0%, Rango release inh -15% and Rango-impB inh -4.9%.
Screening COc1ccc(CCNC(=O)COC(=O)Cn2cnc3ccccc32)cc1OC returned miR-21 reporter -2%, GLA inh pH 4.5 -5, Rango release inh 4% and Rango-impB inh -5.3%.
`O=C(Cn1cnnn1)NC1CCCN(Cc2ccccc2F)C1` (stereo not given) gave miR-21 reporter -1%, Rango release inh 7% and Rango-impB inh -2.9%.
Screening Cc1ccc(CN2CCN(Cc3ccc4cccc(F)c4n3)CC2CCO)cc1 (stereo not given) returned miR-21 reporter 12%, Rango release inh 8% and Rango-impB inh 0.7%.
Screening CCC(C)[C@H](NC(=O)N1c2ccccc2NC(=O)[C@@H]1C(C)C)C(=O)N[C@@H](Cc1ccccc1)C(=O)O (stereo not given in full) returned miR-21 reporter 1%, Rango release inh -7% and Rango-impB inh inconclusive.
Screening S=C(c1ccc(-c2ccc(Cl)cc2Cl)o1)N1CCCC1 returned miR-21 reporter -24%, GLA inh pH 4.5 -24, Rango release inh -7% and Rango-impB inh -1.0%.
Cc1cc(Cl)ccc1OCCCC(=O)NCc1ccccn1 was read as miR-21 reporter -8%, GLA inh pH 4.5 -2, Rango release inh -17% and Rango-impB inh 3.3%.
`Cc1cc2nc(-c3ccc(SCc4ccccn4)nc3)[nH]c2cc1C` gave miR-21 reporter 16%, GLA inh pH 4.5 -12, Rango release inh -23% and Rango-impB inh 1.1%.
`CCn1cc([N+](=O)[O-])c(C(=O)N2CCN(C(=O)c3ccco3)CC2)n1` gave miR-21 reporter 1%, GLA inh pH 4.5 0, Rango release inh -23% and Rango-impB inh -0.1%.
Screening Cc1c(OC(C)C(=O)NCCCN2CCOCC2)ccc2c1oc(=O)c1ccccc12 (stereo not given) returned miR-21 reporter -11%, Rango release inh -9% and Rango-impB inh 0.1%.
For O=C(Nc1ccccc1C(=O)N1CCN(c2ccccc2)CC1)c1ccco1 the results were miR-21 reporter -7%, GLA inh pH 4.5 -9, Rango release inh -10% and Rango-impB inh -0.3%.
Cc1ccc(C(OCC(O)CN2CCCCC2)c2ccccc2)cc1 (stereo not given) was read as miR-21 reporter 2%, Rango release inh 2% and Rango-impB inh -0.2%.
`O=C(CSc1nnc(-c2ccccn2)n1Cc1ccccc1)Nc1ccc2c(c1)OCO2` gave miR-21 reporter 0%, GLA inh pH 4.5 -5, Rango release inh -7% and Rango-impB inh 5.0%.
Screening COc1ccccc1-c1ccc(=O)n(CC(=O)NCc2cccs2)n1 returned miR-21 reporter -24%, GLA inh pH 4.5 -4, Rango release inh -4% and Rango-impB inh 2.1%.
Screening COc1ccc(NS(=O)(=O)c2ccc3oc(SCC(N)=O)nc3c2)cc1 returned miR-21 reporter 15%, Rango release inh 23% and Rango-impB inh -2.6%.
For CCCCC(C(=O)NC(C)(C)C)N(Cc1ccccc1)C(=O)c1snc(C(N)=O)c1N (stereo not given) the results were miR-21 reporter 19%, Rango release inh 1% and Rango-impB inh -6.5%.
O=S(=O)(c1ccccc1)N1CCN(Cc2cccc(Cl)c2)CC1 was read as miR-21 reporter -2%, GLA inh pH 4.5 -10, Rango release inh 11% and Rango-impB inh 1.6%.
For COC(=O)c1cccc([N+](=O)[O-])c1CN1CCCC(C(N)=O)C1 (stereo not given) the results were miR-21 reporter -2%, GLA inh pH 4.5 -2, Rango release inh -11% and Rango-impB inh -0.2%.
Screening CC1CC(C)CN(c2nc3c(c(=O)n(C)c(=O)n3C)n2C)C1 (stereo not given) returned miR-21 reporter -4%, GLA inh pH 4.5 -5, Rango release inh -2% and Rango-impB inh -2.7%.
`CC(C)C1Cc2ccccc2-c2[nH]c(=S)[nH]c(=O)c21` (stereo not given) gave Rango release inh 9% and Rango-impB inh -0.1%.
`O=C1CC(C(=O)Nc2cc(Cl)ccc2Cl)n2ncnc2N1` (stereo not given) gave miR-21 reporter -3%, GLA inh pH 4.5 -3, Rango release inh -1% and Rango-impB inh 0.4%.
For CNC(=S)N(CCc1c(C)[nH]c2ccc(C)cc12)Cc1cccs1 the results were miR-21 reporter inconclusive, GLA inh pH 4.5 -5, Rango release inh 1% and Rango-impB inh -3.8%.
Screening COc1ccc(CNC[C@H]2O[C@@H](n3ccc(=O)[nH]c3=O)[C@H](O)[C@@H]2O)cc1OC returned Rango release inh 4% and Rango-impB inh -0.6%.
Screening Cc1ccc(C(=O)N2CC=C(c3ccccc3)CC2)o1 returned Rango release inh 4% and Rango-impB inh 0.6%.
CC(C)C[C@H](NC(=O)c1nc[nH]c1C(=O)N[C@@H](CCCCNC(=O)OC(C)(C)C)C(=O)OC(C)(C)C)C(=O)OCc1ccccc1 was read as miR-21 reporter 5%, Rango release inh 1% and Rango-impB inh -0.7%.
For O=C(NNC(=O)c1ccc([N+](=O)[O-])cc1Cl)c1ccncc1 the results were miR-21 reporter -11%, GLA inh pH 4.5 2, Rango release inh 5% and Rango-impB inh -0.1%.
Screening CCn1c(SCC(=O)Nc2ccc3c(c2)OCO3)nc2c1c(=O)n(C)c(=O)n2C returned miR-21 reporter 2%, GLA inh pH 4.5 5, Rango release inh -23% and Rango-impB inh -0.5%.
Screening O=C(CN(c1ccc2c(c1)OCCO2)S(=O)(=O)c1ccccc1)Nc1ccc2c(c1)OCO2 returned miR-21 reporter 2%, GLA inh pH 4.5 -8, Rango release inh -15% and Rango-impB inh -1.2%.
Screening Cc1c(C(c2cccc(Br)c2)c2c(C)n(C)n(-c3ccccc3)c2=O)c(=O)n(-c2ccccc2)n1C returned miR-21 reporter 3%, Rango release inh 0% and Rango-impB inh 1.1%.
COc1cc(SC)ccc1C(=O)OCC(=O)NCCNC(=O)COC(=O)c1ccc(SC)cc1OC was read as miR-21 reporter -8%, Rango release inh 0% and Rango-impB inh 0.8%.
CCOC(=O)c1ccc(N2C(=O)[C@@H](c3ccccc3)[C@H]2c2ccccc2)cc1 was read as Rango release inh 12% and Rango-impB inh -0.6%.

Structures shown so far containing fluorine:
COc1cccc(CN2CCN(C3CCN(c4ccccc4F)CC3)CC2CCO)c1 (stereo not given) was read as miR-21 reporter 3%, GLA inh pH 4.5 -3, Rango release inh 2% and Rango-impB inh 1.1%.
For Cc1cc(Cl)ccc1OCC(=O)OCC(=O)Nc1ccc(F)c([N+](=O)[O-])c1 the results were miR-21 reporter -2%, GLA inh pH 4.5 -18, Rango release inh -2% and Rango-impB inh -0.4%.
COC(=O)c1c(C(=O)OC)c(-c2cccc(F)c2)n2c1CS(=O)(=O)C2 was read as miR-21 reporter -6%, Rango release inh -8% and Rango-impB inh -1.2%.
`O=C(Cn1cnnn1)NC1CCCN(Cc2ccccc2F)C1` (stereo not given) gave miR-21 reporter -1%, Rango release inh 7% and Rango-impB inh -2.9%.
Screening Cc1ccc(CN2CCN(Cc3ccc4cccc(F)c4n3)CC2CCO)cc1 (stereo not given) returned miR-21 reporter 12%, Rango release inh 8% and Rango-impB inh 0.7%.

Further entries follow:
`COc1ccc(N(C(=O)C(C)C)S(=O)(=O)c2ccc(Cl)cc2)cc1` gave miR-21 reporter -4%, GLA inh pH 4.5 -3, Rango release inh 1% and Rango-impB inh 0.7%.
`Cc1ccc(CNC(=O)C2CCCN(C(=O)Nc3ccc(F)cc3)C2)cc1` (stereo not given) gave miR-21 reporter -1%, Rango release inh -2% and Rango-impB inh 3.3%.
Screening O=C(NN1C(=O)C2C3c4ccccc4C(c4ccccc43)C2C1=O)c1ccccc1 (stereo not given) returned miR-21 reporter -1%, GLA inh pH 4.5 9, Rango release inh 2% and Rango-impB inh -3.4%.
Screening O=C(c1ccco1)N1CCCC(c2nc3c(nnn3Cc3c(Cl)cccc3Cl)c(=O)[nH]2)C1 (stereo not given) returned miR-21 reporter -1%, Rango release inh 1% and Rango-impB inh -4.0%.
Screening CC(=O)Nc1ccc(NC(=O)COC(=O)C2c3ccccc3Oc3ccccc32)cc1 returned miR-21 reporter 0%, GLA inh pH 4.5 5, Rango release inh 5% and Rango-impB inh -2.5%.
C=CCNC(=O)c1ccccc1NC(=O)C1CCN(S(=O)(=O)c2ccc(SC)cc2)CC1 was read as miR-21 reporter 7%, Rango release inh -1% and Rango-impB inh inconclusive.
`CC(=O)N(C)c1ccc(N=C2C(=O)Nc3ccccc32)cc1` gave miR-21 reporter -2%, Rango release inh -1% and Rango-impB inh 1.7%.
`O=c1cc(N2CCN(c3ccccc3F)CC2)[nH]c(=O)n1-c1ccc(Br)cc1` gave miR-21 reporter 3%, GLA inh pH 4.5 5, Rango release inh 2% and Rango-impB inh -2.9%.
CCc1sc(C(=O)N2CCCN(C)CC2)cc1Br was read as miR-21 reporter -6%, Rango release inh -7% and Rango-impB inh 3.0%.
`O=C(Nc1c2c(nn1-c1ccccc1)CSC2)c1ccc(N2C(=O)CCC2=O)cc1` gave miR-21 reporter 4%, GLA inh pH 4.5 -12, Rango release inh 4% and Rango-impB inh 4.7%.
`CCSc1nnc(N2C(=O)c3ccc(C(=O)c4ccc(C(=O)O)cc4)cc3C2=O)s1` gave miR-21 reporter -4%, Rango release inh 10% and Rango-impB inh -0.2%.
For CCOC(=O)c1nc(C)nc(Sc2n[nH]c(-c3cc(C(F)(F)F)cc(C(F)(F)F)c3)n2)c1C the results were miR-21 reporter -1%, GLA inh pH 4.5 -5, Rango release inh 4% and Rango-impB inh 5.9%.
Screening Cc1ccc(-c2csc(NC(=O)c3c(C)noc3C)n2)s1 returned Rango release inh 0% and Rango-impB inh -1.3%.
For Nc1nc(SCc2ccccc2)[nH]c(=O)c1-c1ccccc1 the results were miR-21 reporter -53%, GLA inh pH 4.5 -5, Rango release inh -6% and Rango-impB inh 0.7%.
COc1ccc(C=NNC(=S)NN=Cc2ccc(OC)c(OC)c2)cc1OC was read as Rango release inh 12% and Rango-impB inh 3.8%.
`Cc1[nH]nc2c1C(c1cccnc1)N(c1ccc(Br)cc1)C2=O` (stereo not given) gave miR-21 reporter -16%, GLA inh pH 4.5 2, Rango release inh -13% and Rango-impB inh -0.3%.
Screening COc1ccccc1OCC(O)Cn1c(=N)n(Cc2ccccc2)c2ccccc21 (stereo not given) returned miR-21 reporter 26%, GLA inh pH 4.5 4, Rango release inh 9% and Rango-impB inh -0.2%.
Cc1ccc(SCC(=O)N2N=CCC2c2ccccc2)cc1 (stereo not given) was read as miR-21 reporter -25%, GLA inh pH 4.5 2, Rango release inh 0% and Rango-impB inh -4.7%.
Screening CC1=C(C(=O)Nc2ccc(C)cc2C)C(c2ccc(Cl)cc2)n2nc(C(=O)OC(C)C)nc2N1 (stereo not given) returned miR-21 reporter -1%&-7%, GLA inh pH 4.5 5, Rango release inh -5% and Rango-impB inh -1.2%.
`CCCN(CC(=O)Nc1ccccc1OC)C(=O)CCNC(=O)c1ccccc1OC` gave Rango release inh 11% and Rango-impB inh -1.1%.
`CNC(=S)N1CCN(c2nc(-c3cccc(OC)c3)cs2)CC1` gave miR-21 reporter 0%, Rango release inh -12% and Rango-impB inh 0.6%.
COc1cc(/C=N/NC(N)=O)ccc1OCC(=O)N1C(C)CCCC1C (stereo not given) was read as miR-21 reporter -4%, GLA inh pH 4.5 -4, Rango release inh -2% and Rango-impB inh -1.8%.

Compound activity deposited in PubChem by National Center for Advancing Translational Sciences (NCATS).
